KCNQ2 block: KCNQ2 channel blockers in CHO-K1 cells – cell-based, FluxOR thallium flux, B-score, primary screen (AID 2156); B-score at 10 µM; O88943; 310,000 tested, 1.1% active; 20 min; hits give low values; only compounds with negative scores are shown here; some inactives read as strong as hits;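 active means fluorescence ratio B-score at most minus 3 library SDs, with starting brightness B-score within 2 library SDs, cut at about -5.5 in these data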
Target sequence (O88943 whole entry, looked up): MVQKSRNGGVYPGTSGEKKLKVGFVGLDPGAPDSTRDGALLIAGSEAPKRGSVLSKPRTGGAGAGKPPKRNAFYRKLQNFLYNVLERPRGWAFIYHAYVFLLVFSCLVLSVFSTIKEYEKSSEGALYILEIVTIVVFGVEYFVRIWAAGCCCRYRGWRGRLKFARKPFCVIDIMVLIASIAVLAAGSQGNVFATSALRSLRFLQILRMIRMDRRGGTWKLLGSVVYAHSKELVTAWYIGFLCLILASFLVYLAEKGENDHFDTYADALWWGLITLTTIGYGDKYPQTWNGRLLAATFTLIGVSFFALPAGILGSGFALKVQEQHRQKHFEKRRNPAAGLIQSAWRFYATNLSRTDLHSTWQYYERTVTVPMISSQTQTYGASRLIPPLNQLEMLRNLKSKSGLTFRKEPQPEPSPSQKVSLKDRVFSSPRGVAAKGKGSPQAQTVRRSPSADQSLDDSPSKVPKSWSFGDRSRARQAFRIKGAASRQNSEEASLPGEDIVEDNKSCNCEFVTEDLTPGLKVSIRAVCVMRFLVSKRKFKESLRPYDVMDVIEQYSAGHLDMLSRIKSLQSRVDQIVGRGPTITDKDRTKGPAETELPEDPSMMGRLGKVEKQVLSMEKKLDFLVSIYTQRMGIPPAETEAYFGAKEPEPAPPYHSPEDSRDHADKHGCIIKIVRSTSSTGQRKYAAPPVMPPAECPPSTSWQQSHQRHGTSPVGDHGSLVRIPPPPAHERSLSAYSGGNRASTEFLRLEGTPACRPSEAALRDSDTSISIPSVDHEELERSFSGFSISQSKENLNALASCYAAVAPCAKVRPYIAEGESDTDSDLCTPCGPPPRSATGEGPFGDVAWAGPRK
KCNQ2 block baseline: second read-out of KCNQ2 block, no call of its own (marks repeat the call); B-score; measured here: initial fluorescence intensity artifact check;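 brightness before thallium and not channel activity; 0 = typical well and far values either way flag optical interference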
* marks the source's active call; other numbers are inactive results; i = inactive. This is a subset; the hit share may differ from the screen's.

Sample of the layout:
SMILES	KCNQ2 block	KCNQ2 block baseline
Cc1ccc(S(=O)(=O)N2CCOCC2)cc1C(=O)Nc1ccc(C(N)=O)cc1	i	1.9
CC(=O)c1c(-c2ccccc2)[nH]c2ccccc12	i	-0.19
CCNC(=O)C1CCCN(c2nc(C)cc(C)n2)C1 (configuration not stated)	i	0.07
O=C(NCCc1ccc(Cl)cc1)C1CCCO1 (configuration not stated)	i	0.12
COc1ccc(N2CCN(Cc3cc4c(cc3Br)OCCO4)CC2)cc1	i	0.05
O=C(NCCN1CCOCC1)c1csc2c1CCCC2	i	1.1
CCNc1ccc(C(=O)Nc2ccc3nc(C)sc3c2)cc1[N+](=O)[O-]	i	0.9

All compounds of this part, from the start:
SMILES	KCNQ2 block	KCNQ2 block baseline
Cc1ccc(S(=O)(=O)N2CCOCC2)cc1C(=O)Nc1ccc(C(N)=O)cc1	i	1.9
CC(=O)c1c(-c2ccccc2)[nH]c2ccccc12	i	-0.19
CCNC(=O)C1CCCN(c2nc(C)cc(C)n2)C1 (configuration not stated)	i	0.07
O=C(NCCc1ccc(Cl)cc1)C1CCCO1 (configuration not stated)	i	0.12
COc1ccc(N2CCN(Cc3cc4c(cc3Br)OCCO4)CC2)cc1	i	0.05
O=C(NCCN1CCOCC1)c1csc2c1CCCC2	i	1.1
CCNc1ccc(C(=O)Nc2ccc3nc(C)sc3c2)cc1[N+](=O)[O-]	i	0.9
Cn1cccc1C(=O)N1CCN(c2cccc(C(F)(F)F)c2)CC1	i	-1.1
O=C(NC1CCCN(Cc2ccc(Cl)cc2)C1)c1ccoc1 (configuration not stated)	i	-0.1
CC(C)NS(=O)(=O)c1ccc(OCC(=O)NCCC2=CCCCC2)cc1	i	1.4
C/C(CC(=O)Nc1cc(C)ccn1)=N\NC(=O)c1ccc(C)cc1	i	0.12
CCOc1ccccc1/C=N/Nc1ccc(Cl)nn1	i	-0.22
CCc1nn(C(C)C(=O)N2CCc3ccccc3C2)c(=O)c2cc3occc3n12 (configuration not stated)	i	-0.78
Cc1ccc(C(=O)N2CCN(c3ccccn3)CC2)cc1C	i	0.98
CCn1c(SCC(=O)Nc2c(C)n(C)n(-c3ccccc3)c2=O)nnc1-c1cccc(C)c1	i	-0.99
O=C(COC(=O)Cc1ccc(F)cc1)Nc1ccc2[nH]c(=O)[nH]c2c1	i	-0.71
O=C(Nc1cccnc1Cl)c1cccc(F)c1	i	2
Cc1cc(C)n(CCC(=O)Nc2cccc(F)c2)n1	i	3.6
COc1cccc(C2(O)CCN(C(=O)C3CCC3)CC2)c1	i	0.88
Cc1ccc(C(=O)NCC(=O)OCC(=O)NC2CCCCCCC2)cc1	i	-0.38
C[C@@H]1C[C@H]2[C@@H]3C[C@H](F)C4=CC(=O)C=C[C@]4(C)[C@@]3(F)[C@@H](O)C[C@]2(C)[C@@]1(O)C(=O)CO	i	-0.01
CCC(c1nnc(SCC(=O)Nc2cccc(S(N)(=O)=O)c2)n1-c1ccc(OC)cc1)N(C)C (configuration not stated)	i	-1.5
Cc1ccc(CN(Cc2ccco2)C(=O)c2ccco2)cc1	i	0.39
Cc1cccc(OCC(=O)NCCN2CCOCC2)c1	i	-0.38
COc1ccc(C2C(C#N)=C(N)Oc3cc(O)ccc32)cc1OC (configuration not stated)	i	0.22
COc1ccccc1N1CCN(C(=O)CNC(=O)Cn2cnc3sc(C)c(C)c3c2=O)CC1	i	-0.16
COc1cccc(Oc2c(C)oc3c(CN4CCCC4)c(O)ccc3c2=O)c1	i	0.29
COc1cc(C(=O)OCC(=O)NC2CCS(=O)(=O)C2)ccc1OCc1c(C)noc1C (configuration not stated)	i	3.4
O=C(Cn1nc(C(F)F)cc1C(F)F)NNC(=S)Nc1ccc(Cl)cc1	i	-0.08
CC(SC1=Nc2ccccc2C2CC=NN12)C(=O)NC1(C#N)CCCCC1 (configuration not stated)	-8.7*	-1.2*
O=C(Nc1ccc(O)c(-c2nc3ccccc3o2)c1)C1(c2ccccc2)CCCC1	i	0.85
CC1CCCCN1S(=O)(=O)c1ccc(C(=O)Nc2nnc(-c3ccccn3)o2)cc1 (configuration not stated)	i	-0.49
C=CCOc1ccc(NC(=O)C(=O)NCCCn2ccnc2)cc1	i	0.97
C=CCn1c(SCC(=O)N(C)C2CCS(=O)(=O)C2)nnc1-c1ccncc1 (configuration not stated)	i	-1.4
Cc1ccc(OCC(=O)N2N=C(c3ccncc3)CC2(O)C(F)(F)F)cc1C (configuration not stated)	i	0.85
O=C1CCCC/C1=C/NCc1ccccc1	i	2.5
COC(=O)c1ccc(OC)c(CSc2nnc(COc3ccccc3)o2)c1	i	-0.9
Cc1ccc(NC(=O)Cn2nnc3ccccc3c2=O)cc1C	i	1.3
CC(C)(C)c1ccc(C(=O)NN=C2CCCC2)cc1	i	0.23
CC(=O)Nc1ccc(N/C=C(\C#N)S(=O)(=O)c2ccc(Cl)cc2)cc1	i	1.1
Cc1ccc2c(c1)nc(-n1nc(C)cc1C)c1nnnn12	i	-0.94
Cc1ccc(CNC(=O)C(NS(=O)(=O)c2cccc3nsnc23)c2ccccc2)cc1 (configuration not stated)	i	0.26
CC(C)(C)C1CCC(C(=O)OCC(=O)c2ccc[nH]2)CC1 (configuration not stated)	i	-0.01
CCC(C)C(NC=C1C(=O)OC(C)(C)OC1=O)C(=O)O (configuration not stated)	i	0.96
O=C(NC(Cc1ccccc1)c1nc2ccccc2[nH]1)c1ccc(Cl)c([N+](=O)[O-])c1 (configuration not stated)	i	-1.2
COc1ccc(Cn2c(O)c(/C=C3/C=CC=N3)c(=O)[nH]c2=O)cc1	i	0.11
O=C(O)[C@H]1CCCC[C@H]1C(=O)Nc1ccc(Nc2ccccc2)cc1	i	1.5
O=C(CC1C(=O)NCCN1Cc1cccc(F)c1)NCCCOc1cccnc1 (configuration not stated)	i	0.81
CCOC(=O)C(CC(=O)Nc1nc(C(C)=O)c(C)s1)C(C)c1ccccc1 (configuration not stated)	i	-0.22
O=C(NCc1ccc(F)cc1)C(Cc1ccccc1)NS(=O)(=O)c1cccs1 (configuration not stated)	i	1.2
CCn1nnnc1-c1ccc(OC)c(S(=O)(=O)Nc2ccc(S(N)(=O)=O)cc2)c1	i	-0.78
Cc1ccccc1CN1C(=O)c2ccccc2Sc2ccc(C(=O)O)cc21	i	1.5
O=C(Nc1ccc(N2CCOCC2)cc1)c1ccccc1SCC(=O)N1CCCC1	i	-0.91
COc1ccccc1OCc1nc(C#N)c(N2CCC(C(N)=O)CC2)o1	i	-1.1
Cc1cccc(C)c1NC(=S)N/N=C1\CC2CC=CC12 (configuration not stated)	i	-0.4
Cc1ccc(S(=O)(=O)c2nnn(-c3cccc(F)c3)c2N)cc1	i	-0.08
COCCCNC(=O)CC1Oc2ccccc2NC1=O (configuration not stated)	i	1.6
CN(/N=C/c1ccc(N(C)C)cc1)C1=NS(=O)(=O)c2ccccc21	i	-0.24
O=C(O)C1CC=CCC1C(=O)NCc1cn2ccccc2n1 (configuration not stated)	i	-0.65
CC1=NN(c2ccc(Cl)cc2)C(=O)C1C(c1ccccc1O)c1c(C)[nH]n(-c2ccc(Cl)cc2)c1=O (configuration not stated)	i	-0.53

Taken from above.
In KCNQ2 block baseline, O=C(NCc1ccc(F)cc1)C(Cc1ccccc1)NS(=O)(=O)c1cccs1 (configuration not stated) is listed with 1.2
In KCNQ2 block baseline, Cc1ccc(S(=O)(=O)c2nnn(-c3cccc(F)c3)c2N)cc1 is listed with -0.08
In KCNQ2 block baseline, Cc1cccc(C)c1NC(=S)N/N=C1\CC2CC=CC12 (configuration not stated) is listed with -0.4

(more compounds)
SMILES	KCNQ2 block	KCNQ2 block baseline
CC(C(=O)N1CCN(Cc2ccc3c(c2)OCO3)CC1)n1cc([N+](=O)[O-])cn1 (configuration not stated)	i	-0.52
CC(=O)Nc1ccc(NC(=O)c2ccc3c(c2)CCN3S(C)(=O)=O)cc1	i	0.74
CC(C)(C)c1ccc(OCc2ccc(C(=O)NCc3cccnc3)o2)cc1	i	-1.2
Cc1cc(Cl)cc(C)c1OCCOCCNCc1ccccc1	i	-0.9
Cc1ccc(-n2c(=O)c3sccc3n(CC(=O)NCc3ccco3)c2=O)cc1	i	1.9
COCCCNCCCCOc1c(Cl)cc(C)cc1Br	i	1.6
CCOC(=O)C1=C(C)OC(N)=C(C#N)C1c1ccc(OC)c(CSc2ccccn2)c1 (configuration not stated)	i	-0.02
COc1ccccc1CNC(=O)c1cc(C(C)=O)c[nH]1	i	1
Cc1ccc(S(=O)(=O)NCc2cccnc2)cc1C(=O)N1CCCC1	i	2.6
C=CCSc1nnc(NC(=O)c2ccc(NC(C)=O)cc2)s1	i	-0.68
Nc1ccc(-c2nnn(Cc3ccccc3F)n2)cc1	i	-0.04
CCC1CCC/C1=N\NC(=O)CCC(=O)Nc1ccccc1Cl (configuration not stated)	i	2.7
Cc1ccc(NC(=S)N(Cc2ccco2)C(C)c2cccs2)c(Cl)c1 (configuration not stated)	-6.2*	-0.29*
NC(=O)C1CCCN(CCc2ccccc2)C1 (configuration not stated)	i	-5.2
COC(=O)c1cc(S(=O)(=O)N2CCN(c3cccc(Cl)c3)CC2)c[nH]1	i	-0.16
Cc1ccccc1-c1nc2sc(C)c(C)c2c(=O)o1	i	-0.86
CCN(CC1CCCN(CCc2cccc(F)c2)C1)C(=O)c1cc(C)oc1C (configuration not stated)	i	-0.13
CNCCCOc1ccc(Cl)cc1C(C)(C)C	i	2.8
COc1cc(C(=O)O)ccc1OCC(=O)N1CCOCC1	i	0.89
O=C(O)c1ccccc1SC1CC(=O)N(c2ccccc2)C1=O (configuration not stated)	i	0.19
CC(C)CC(NC(=O)c1cccc(Cl)c1)C(=O)O (configuration not stated)	i	0.65
O=C(NC1CC1)C1=C[C@H](c2ccc(C(F)(F)F)cc2)C[C@H](OCCCCO)O1	i	0.27
O=C(NC1CCCc2ccccc21)c1ccccc1OC(F)F (configuration not stated)	i	-0.01
NC(=O)c1ccc(NC(=O)CCCc2nc(-c3ccccc3Cl)no2)cc1	i	1.1
CCCCNc1nc(N(C)c2ccccc2)nc(-n2ccnc2)n1	i	0.39
COc1ccc(N2CCN(c3cc(C)c4ccc(C)cc4n3)CC2)cc1	i	0.38
N#Cc1c(-n2cccc2/C=N/O)sc2c1CCCC2	i	0.25
CCc1nc2ccc(C(=O)N3CCN(c4ccccc4F)CC3)cc2nc1CC	i	-1.1
COc1cccc(/C=C(/C(=O)OCC(=O)NCC2CCCO2)c2ccccc2)c1 (configuration not stated)	i	0.88
O=C(Oc1ccccc1)c1cccc2cccc(C(=O)Oc3ccccc3)c12	-5.8*	-0.08*
O=C1CCC(c2ccccc2)(c2ccccc2)CC1	i	1.6
COc1ccccc1NC(=O)CSc1nnc(Cc2cccn2C)n1-c1ccc(F)cc1	i	0.83
CC12CCC(C(=O)N3CCc4ccccc43)(CC1=O)C2(C)C (configuration not stated)	i	0.27
CC(=O)c1ccc(NC(=S)NCCc2ccccn2)cc1	i	-2.2
CCOc1ccccc1CNC(=O)C1CCN(c2nn3c(=O)cc(C)nc3s2)CC1	i	1.6
Cc1cccc2sc(N(CCCN(C)C)C(=O)c3ccco3)nc12	i	-0.51
CC(Nc1cccc2ccccc12)C(=O)N/N=C/c1ccc([N+](=O)[O-])cc1 (configuration not stated)	i	0.74
CNC(=S)N/N=C(\C)c1ccc2c(c1)OCO2	i	2.3
Cc1ccc(-c2nn(CC(=O)Nc3ccc4c(c3)nc3n4CCOC3)c(=O)c3ccccc23)cc1	i	-1.1
COc1cc(C=O)ccc1Oc1cnccn1	i	1.6
Cc1ccc(C)c(NS(=O)(=O)c2cc(C(=O)N3CCc4ccccc4C3)ccc2Cl)c1	i	0.08
Cc1ccc(Nc2nnc(SCn3nnc4ccccc4c3=O)s2)cc1	i	-1.2
Cn1cnnc1SCC(=O)c1ccc(O)c(O)c1	i	-1.2
CCOC(=O)c1c(NC(=O)COC(=O)c2ccc(O)cc2)sc(C(=O)N(C)C)c1C	i	0.7
Cc1cccc(NC(=O)N2C3CCCC2CC(NC(=O)C(C)(C)C)C3)c1 (configuration not stated)	i	0.38
CC(Cc1cccs1)NC(=O)Nc1ccc(F)cc1 (configuration not stated)	i	-0.59
Nc1cc(S(=O)(=O)N2CCCCC2)ccc1N1CCOCC1	i	2.2
Cc1cc2c(c(SCC#N)n1)C(=O)OC2	i	0.69
Cc1ccc(C)c(CN2C(=O)CSc3ccc(C(=O)NCCN4CCOCC4)cc32)c1	i	0.46
CCn1c(SCC(=O)NC2CC2)nnc1-c1ccncc1	i	-0.17
CCOP(=O)(OCC)C(NC(=O)Nc1ccc(Cl)cc1)C(=O)N(CC)CC (configuration not stated)	i	0.66
COc1ccc2noc3c2c1C(=O)c1ccccc1-3	i	100
COC(=O)c1cc(OC)c(OC)c(OC)c1[N+](=O)[O-]	i	-1
CCc1noc(C)c1C(=O)OC(C)C(=O)Nc1cc([N+](=O)[O-])ccc1OC (configuration not stated)	i	0.38
CC(=O)c1ccc(OCC(=O)c2ccc(-c3ccccc3)cc2)cc1	i	-0.01
COc1ccc(CNC(=O)C(OC(=O)c2cccs2)C(C)C)cc1 (configuration not stated)	i	1.9

3 of the compounds above, with each value named.
Cc1ccc(CN(Cc2ccco2)C(=O)c2ccco2)cc1
  KCNQ2 block: i	KCNQ2 block baseline: 0.39
Cc1cccc(OCC(=O)NCCN2CCOCC2)c1
  KCNQ2 block: i	KCNQ2 block baseline: -0.38
COc1ccc(C2C(C#N)=C(N)Oc3cc(O)ccc32)cc1OC (configuration not stated)
  KCNQ2 block: i	KCNQ2 block baseline: 0.22
